# Assay outcomes as filed in PubChem BioAssay.
# Bead autofluor: flagged as autofluorescent in microsphere protease counterscreen. compound autofluorescence counterscreen, microsphere flow cytometry; active compounds read high. fluorescence intensity (concentration not given with the values). actives 3.1% (n = 360,000);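 active means at least 3 SD above the mean of all compounds, about 16000 in these data; inconclusive means too few beads counted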;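 further: 100 nL of 1 mM stock went into each well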
# RN4220 kill: growth inhibition of S. aureus RN4220, primary screen, OD600 | actives 0.33% (n = 330,000) | 16 h | inhibition, % (test concentration not listed);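 active means z-score of -3 or lower and OD600 up to 0.18 on both plates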;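 further: plate controls were untreated cells for no effect and reference antibiotic for full effect; stock transfer was 100 nL into about 80 µL; one replicate is shown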
# ugtP null kill: growth inhibition of ugtP-null S. aureus, primary screen, RN4220 ugtP deletion, OD600; 16 h; some inactives read as strong as hits; growth inhibition, % (no concentration beside the values); actives 0.54% (n = 330,000);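 active means z-score under -3 and OD600 up to 0.15 on both plates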;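 further: plate controls were untreated wells for no effect and antibiotic for full effect; wells of about 80 µL received 100 nL stock; the first replicate is given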
# BJeLR viability: MLPCN primary cell-based screen for lethality selective to Ras in HRASV12 cells; BJeLR (HRASV12) viability, CellTiter-Glo ATP luminescence, 48 h; reference of the scale not given here; inhibition, % (concentration not given with the values); actives 0.17% (n = 300,000);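 active means replicate mean above 50%; inconclusive means above 50% but judged a plate artefact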;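 further: 50 nL library stock added to about 25 µL; numbers are from one replicate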
# PrP 5UTR inh: inhibition of PrP 5' UTR reporter expression | cell-based PrP 5' UTR mRNA reporter, plate reader | inhibition, % (concentration not given with the values) | actives 0.35% (n = 340,000) | AID 488862, 2010;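 active means every replicate at 50% or more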;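 further: 0 = median of the neutral control wells; tested in H4 reporter cells; numbers are from one replicate; inactives centre near -14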
# Mtb hypoxia inh: PubChem AID 1159583; M. tuberculosis hypoxia-regulated fluorescent reporter, fluorescence; fluorescence inhibition, % (concentration not given with the values); actives 0.1% (n = 300,000);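 active means 35 to 45% if threefold the growth effect, above 45% if 1.5-fold the growth effect; inactive means the rest, general growth blockers included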;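 further: wells of about 50 µL received 100 nL stock; 0% = vehicle wells and 100% = reference inhibitor wells; whole bacteria with a GFP reporter of the hypoxia response; strong numbers were not always called active; many hits fall short of the cut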
# Mtb hypoxia inh growth: further read-out of Mtb hypoxia inh, marked with its call; growth inhibition, %; measured here: M. tuberculosis growth (absorbance);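 0% = vehicle and 100% = reference antibiotic; read after six days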
# * = called active by the depositor; ? = inconclusive; . = no result given.
SMILES,Bead autofluor,RN4220 kill,ugtP null kill,BJeLR viability,PrP 5UTR inh,Mtb hypoxia inh,Mtb hypoxia inh growth
Cc1sc2ncnc(SCC(=O)c3ccc(O)cc3O)c2c1C,6207,3.6,7,5,-7,4,14
C[C@H]1CC[C@@]2(O[C@H](CCO)C[C@@H](O)[C@@H]2O)O1,2950,.,.,-5,-26,.,.
C=CCN1CN(CCc2ccccc2)CNC1=S,6251,4.0,9,-11,.,7,3
NC(=S)c1ccc[n+]([O-])c1,2884,-5.6,14,.,-44,6,2
CC(NC(=O)c1ccco1)c1nc(-c2ccc(C(C)(C)C)cc2)no1 (stereo not drawn),3991,2.6,6,-2,-15,6,8
COCCCNC(=O)CC(NS(=O)(=O)c1ccc(F)cc1)c1ccc(OC)cc1 (stereo not drawn),8250,8.6,4,-3,-47,11,5
O=C(Nc1ccc(OC(F)(F)F)cc1)C1CCCN(S(=O)(=O)c2cnc[nH]2)C1 (stereo not drawn),5673,-0.2,6,0,-9,8,6
C[C@@H](C(=O)OCC(=O)Nc1cc(S(=O)(=O)N2CCOCC2)ccc1Cl)N1C(=O)C2CCCCC2C1=O (stereo partly drawn),7400,.,.,-3,1,.,.
COc1ccccc1C(=O)NCCC(=O)NNC(=O)C1COc2ccccc2O1 (stereo not drawn),5230,0.9,6,-5,-10,-8,-1
CCN(CC)CCNC(=O)c1ccc(Sc2ccc(C)cc2)c(NC(C)=O)c1,3122,1.4,9,-5,-6,9,2
OCc1ccc(O)c2ncccc12,2892,-19,-4,27,8,6,7
O=C(NNC(=S)NC(=O)c1sc2ccccc2c1Cl)c1ccc(Cl)cc1,2130,.,.,0,-10,.,.
COc1ccccc1N(CC(O)COc1c(C)cc(C)cc1C)S(=O)(=O)c1ccccc1 (stereo not drawn),9565,12,13,-5,-21,5,-4
O=C(CSc1nc(=O)n(CCCN2CCOCC2)c2c1CCCC2)Nc1ccc(F)cc1,5375,5.3,8,21,-33,7,7
NC(=O)CC(NC(=O)c1ccccc1)c1ccc(NCCOc2ccccc2)c([N+](=O)[O-])c1 (stereo not drawn),4171,5.5,2,5,-15,13,4
Cc1nc2c(C(=O)N3CCC4(CC3)OCCO4)cnn2c(C)c1Cc1cccc(Cl)c1,3969,6.7,-63,-2,-24,12,4
CC[C@@H](C)[C@@H]1CN([C@@H](C)CN2CCC[C@H]2CN2C(N)=NC[C@H]2C(C)C)C(=N)N1CCc1ccc(Cl)c(Cl)c1,2875,86,100*,.,-6,.,.
CCC1(COC(=O)Nc2cccc(Cl)c2)COC1,3963,-0.8,-2,3,-31,8,11
Cc1cc(C(=O)Nn2cnnc2)ccc1[N+](=O)[O-],4330,5.3,7,0,-18,7,14
COC(=O)CSc1nnc(CNC(=O)c2cc(OC)c(OC)c(OC)c2)n1C,9507,-1.2,-2,9,-24,10,6
Cc1ccc(NC(=O)COC(=O)c2ccn(C)n2)cc1,12922,-3.4,-1,2,-25,1,-2
Cc1cc(C)c(OCC(=O)Nc2ccc(NC(=O)c3ccco3)cc2)c([N+](=O)[O-])c1,2212,8.9,1,.,8,6,2
O=C(CCc1c[nH]c2ccccc12)OCc1cccc(C(F)(F)F)c1,4582,-1.0,-5,-9,-18,4,-1
CCC(C)NC(=O)Nc1ccc(Br)cc1Cl (stereo not drawn),1953,14,-2,-1,-24,5,4
COCC1CCCN(Cc2nc(Cc3ccccc3)no2)C1 (stereo not drawn),3676,2.2,2,4,-1,5,13
CCN(CC)S(=O)(=O)c1ccc(/C=C/C(=O)Nc2ccccc2N2CCOCC2)cc1,4452,2.1,5,-3,1,6,4
NS(=O)(=O)c1ccc(CCNC(=O)Cc2ccc(S(=O)(=O)N3CCCC3)s2)cc1,3511,6.2,2,3,8,7,3
O=C(NCCO)C1CCN(C(=O)c2ccc(-c3ccccc3)cc2)CC1,3266,-2.5,3,-8,2,14,6
Cc1c(OCc2ccccc2)c(=O)ccn1Cc1ccc(Cl)cc1,2865,-19,-26,-2,-37,4,2
N#Cc1c(-c2ccc(Cl)cc2)cc(-c2cccs2)nc1SCC(=O)O,3728,.,.,-8,-12,.,.
COC(=O)COc1ccc(S(=O)(=O)Nc2ccc3c(c2)OCO3)cc1Cl,11264,1.7,11,8,3,4,3
O=C(OCCn1cncn1)c1cc2ccccc2oc1=O,3697,-6.9,1,-7,-3,5,0
Cc1ccccc1NC(=O)NCC1CCCO1 (stereo not drawn),2335,-9.7,2,-5,-10,12,7
C/C(Cl)=C/CSc1nn2c(=O)c3ccccc3nc2s1,2822,.,.,-2,-35,.,.
Cc1ccccc1C=NN1C(=O)CSC1=S,.,5.9,4,.,.,.,.
CCCCN1C(=N)N(C(CN2CCCC2CN2C(N)=NCC2Cc2ccccc2)C(C)C)CC1Cc1ccccc1 (stereo not drawn),.,-5.7,-2,.,.,19,24
O=C(C1CCCO1)N1CCN(C(=S)Nc2cccc(F)c2)CC1 (stereo not drawn),6269,3.9,1,3,1,1,-8
O=C(NC1CCCC1)[C@@H]1CSC2c3ccccc3C(=O)N21 (stereo partly drawn),5466,1.9,4,0,-10,-4,5
CCCCn1c(SCC(=O)NCc2ccccc2)nc2ccc(N3CCOCC3)cc2c1=O,7586,-1.1,-6,1,-25,3,2
COc1ccc(S(=O)(=O)N2CCN(c3ncccn3)CC2)cc1OC,3330,4.3,15,-7,-38,12,4
N#Cc1ccc(NC(=S)Nc2ccccc2)cc1,2456,-0.2,-4,-3,-10,-8,-3
O=C(Nc1ccnn1C1CCN(C(=O)c2cccc(C(F)(F)F)c2)CC1)C1CC1,?,4.0,5,-1,4,11,10
CCCCCc1ccc(S(=O)(=O)NCCc2ccncc2)cc1,10897,1.2,-5,-2,-22,0,8
Cc1ccccc1CS(=O)(=O)CCC(=O)NCc1ccccn1,3003,10,3,-9,-4,-3,5
COc1ccc(-c2cn(-c3ccc(SC(F)F)cc3)c3[n+]2CCC3)cc1OC,2491,-1.3,5,9,-24,3,11
COc1ccccc1-c1cc(C(F)(F)F)n2ncc(S(=O)(=O)c3ccccc3)c2n1,.,0.4,-2,-15,-3,8,24
Cc1ccccc1NC(=O)CSc1nc(O)cc(=O)n1C,3939,3.6,-2,-2,-21,15,2
S=C(N/N=C1\CCc2ccccc21)NC1CCCCC1,3431,.,.,6,-21,.,.
Cc1cc(F)ccc1S(=O)(=O)N(C(=O)c1ccncc1)c1ccc(OC(=O)c2ccncc2)cc1,4906,4.3,5,-8,-16,20,0
O=C1c2ccccc2C(Nc2ccc(-c3nc4ccccc4[nH]3)cc2)N1Cc1ccco1 (stereo not drawn),6353,-16,-19,-10,-9,-6,10
COc1ccc(OC(C)C(=O)N2CCOCC2)cc1 (stereo not drawn),3586,3.9,4,-3,-21,2,8
COc1cc(C(=O)COC(=O)c2ccc([N+](=O)[O-])o2)cc(OC)c1OC,3536,0.4,4,.,-31,9,10
O=C(Nc1ccc(S(=O)(=O)N2CCCC2)cc1)c1cccnc1Cl,4431,6.3,7,0,-19,10,5
C=C(C)COc1ccc(-c2ncncc2-c2ccc(Cl)cc2)c(O)c1,2857,-2.2,14,2,-7,1,2
CCC(=O)NNc1cc(=O)c2c(=O)n(C)c(=O)n(C)c2[nH]1,3055,5.7,2,-2,-1,6,2
CCCC(=O)Nc1ccccc1-c1nnn(CC(=O)Nc2ccc(OCC)cc2)n1,3817,-4.4,-14,-18,-23,2,8
CC=C(C)C(=O)OC(C(O)c1cc2ccc(=O)oc2cc1OC)C(C)(C)OC1OC(CO)C(O)C(O)C1O (stereo not drawn),.,1.4,1,.,.,4,11
CCCCNC(=O)Nc1ccc(C(O)(C(=O)OCC)C(F)(F)F)cc1 (stereo not drawn),8155,2.1,1,-18,11,2,5
COc1ccc(C(=O)NNC(=S)NC(=O)c2ccc(OC)cc2)cc1,3735,.,.,-10,-9,.,.
COc1cc2c(cc1OC)C(Cc1ccc(O)cc1)N(C)CC2 (stereo not drawn),2719,3.9,3,-2,-19,3,-5
# Continuation:
SMILES,Bead autofluor,RN4220 kill,ugtP null kill,BJeLR viability,PrP 5UTR inh,Mtb hypoxia inh,Mtb hypoxia inh growth
COc1ccc([C@H]2C(C(=O)O)=C[C@@H](C(C)(C)C)N2S(=O)(=O)c2ccccc2)cc1,4099,8.5,21,.,-1,-6,4
CC1=NNC(=O)C1C(c1ccc(F)cc1)C(C#N)C#N (stereo not drawn),2491,-4.0,13,3,-8,13,2
Cc1cccc(OCC(O)Cn2c(N3CCCCC3)nc3c2c(=O)[nH]c(=O)n3C)c1 (stereo not drawn),4093,2.9,0,6,1,-4,5
Cc1ccc(NC(=O)CCc2ccc(C)o2)c(C)c1,5691,2.6,3,6,-24,3,4
Cc1ccc2cc(CN(C(=O)c3ccncc3)C(C)C)c(=O)[nH]c2c1,3108,9.7,3,-8,0,13,12
O=C(COC(=O)/C=C/c1cccc(Br)c1)NCc1ccco1,3976,1.1,1,3,2,2,-2
O=C(N/N=C/c1sc(N2CCOCC2)nc1-c1ccccc1)c1ccccc1O,10474,.,.,-14,-9,.,.
CCOc1ccc(-c2nc(N)ncc2Oc2ccc(OC)cc2)c(O)c1,4654,-1.0,4,3,-1,12,3
CCOc1ccc(NC(=O)N(C2CCCC2)C2CCN(C(C)=O)CC2)cc1,3377,2.9,1,-6,-13,3,7
CCN1CCN(c2ccc(S(=O)(=O)N3CCCCC3)cc2NC(=O)/C=C/c2ccc(F)cc2)CC1,?,-3.2,-1,2,-19,2,8
COc1ccc(Cc2nnc(NC(=O)Cn3cnc4c3c(=O)n(C)c(=O)n4C)s2)cc1,2880,0.0,9,0,-21,.,.
O=c1c2c(nc3cc(-c4ccc(F)cc4)[nH]n13)CCCC2,2585,-2.6,-8,9,-34,.,.
O=c1c2cn[nH]c2nc(SCc2c(F)cccc2F)n1-c1ccc(Cl)cc1,4471,5.4,-8,3,5,-8,9
COCc1c(CCl)cnc(C)c1O,4241,3.7,8,-22,-4,3,5
COC(=O)c1cn(NC(=O)c2cc(OC)cc(OC)c2)c(=O)c2ccccc12,8874,0.5,1,-8,-3,1,7
COc1cc2c(cc1OC)C(C)N(C(=O)Cn1ncc3c1-c1ccccc1OC3)CC2 (stereo not drawn),4647,2.8,7,2,-5,.,.
CCCCC[n+]1ccn(C2=C([O-])c3ccccc3C(=O)/C2=N\S(=O)(=O)c2ccc(Br)cc2)c1,4287,-1.5,-7,6,-27,-5,-6
N#CC(=C1CCCN1)c1nc2ccccc2c(=O)[nH]1,.,4.7,-8,.,.,2,1
CS(=O)(=O)N1CCN(c2ccc(C(=O)NC3C4CC5CC(C4)CC3C5)cc2[N+](=O)[O-])CC1 (stereo not drawn),16975*,2.2,-11,3,-8,6,9
CN(C)S(=O)(=O)c1cccc(NC(=O)CCc2c[nH]c3ccccc23)c1,4435,-1.3,3,1,-34,-5,8
O=C(CN1C(=O)CSC1=O)Nc1ccc2c(c1)OCCO2,3249,1.5,1,0,-11,-2,-7
